FGF22 binding = binders of human FGF22 protein, primary screen, FGF22 synaptogenesis inhibitor project, biophysical, thermal shift, single point | hit rate 1.5% among 340,000 | calls only at 9.99 µM | recombinant FGF22 thermal shift, SYPRO orange fluorescence; percent of sucrose octasulfate shift, DMSO zero | Fibroblast growth factor 22 (Homo sapiens), Q9HCT0;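 active means melting point raised past a set limit in the mean and every replicate; inconclusive means no clear call; three in four hits are not shown here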
Target sequence (Q9HCT0 whole entry, looked up): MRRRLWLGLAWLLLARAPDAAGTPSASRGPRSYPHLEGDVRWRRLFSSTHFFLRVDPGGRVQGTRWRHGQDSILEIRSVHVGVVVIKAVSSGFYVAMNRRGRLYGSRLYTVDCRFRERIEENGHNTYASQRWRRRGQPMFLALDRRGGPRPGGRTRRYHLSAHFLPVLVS
T cruzi repl = inhibitors of intracellular T. cruzi growth, primary screen, luminescence, NIH3T3 host cells; hit rate 1.4% among 300,000; inhibition, % (concentration not given with the values); T. cruzi beta-gal in NIH3T3, 90 h;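 active means mean inhibition across valid replicates above about 55%, limit read from the data; inconclusive means mean below that limit but half or more replicates reach it; inactive means mean below it, under half of replicates reach it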;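 further: signal also drops with host cell toxicity which is not excluded here; 0% = plate median of DMSO wells and 100% = zero luminescence signal; higher percent means less beta-gal luminescence so fewer parasites; stock transfer was 50 nL into about 50 µL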
AF4-AF9 inh = inhibitors of AF4 peptide binding to AF9, primary screen, biochemical, AlphaScreen, biotin-AF4 peptide, FLAG-AF9, single point. Protein AF-9 (Homo sapiens), P42568. inhibition, % at 10 µM. hit rate 0.47% among 350,000. AID 651704, 2012;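 active means every replicate reaching a set inhibition limit, whatever the replicate mean, cut at about 25% in these data; inconclusive means mean inhibition reaches that limit but some replicates miss it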;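 further: 0% = plate neutral control median and 100% = total signal loss; the record names both 10 and 1 µM as test concentration; the first replicate is given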
Target sequence (P42568 whole entry, looked up): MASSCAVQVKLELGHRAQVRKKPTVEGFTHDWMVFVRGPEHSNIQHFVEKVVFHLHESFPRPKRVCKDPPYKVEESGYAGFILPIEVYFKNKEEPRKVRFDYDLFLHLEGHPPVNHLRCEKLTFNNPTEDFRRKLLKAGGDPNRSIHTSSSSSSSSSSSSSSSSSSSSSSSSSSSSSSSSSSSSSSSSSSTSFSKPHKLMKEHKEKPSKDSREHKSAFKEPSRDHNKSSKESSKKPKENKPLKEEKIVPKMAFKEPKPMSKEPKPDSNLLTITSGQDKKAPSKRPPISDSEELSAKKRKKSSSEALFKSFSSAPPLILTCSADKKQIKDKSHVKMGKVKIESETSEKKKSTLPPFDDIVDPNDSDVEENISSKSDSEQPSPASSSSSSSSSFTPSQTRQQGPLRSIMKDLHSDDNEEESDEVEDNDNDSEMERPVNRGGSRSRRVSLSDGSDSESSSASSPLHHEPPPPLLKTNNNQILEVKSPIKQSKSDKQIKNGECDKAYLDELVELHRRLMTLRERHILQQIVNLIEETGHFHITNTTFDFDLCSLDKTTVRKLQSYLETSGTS
Calb FLC = C. albicans growth inhibition with fluconazole, primary screen, CaCi-2 strain, Alamar Blue fluorescence; growth inhibition, % (no concentration beside the values); hit rate 0.57% among 300,000; C. albicans CaCi-2 (fluconazole-resistant clinical isolate) + fluconazole, 48 h;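 active means most replicates above 75%; inconclusive means exactly half above 75%; inactive means most below 75%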;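 further: all wells also contain fluconazole at 8 µg/ml as a sub-toxic cotreatment; 0% = median of DMSO wells and 100% = median of geldanamycin control wells; wells of about 8 µL received 7.5 nL stock; the first replicate is given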
ALR inh = inhibitors of human ALR sulfhydryl oxidase, primary screen, biochemical, H2O2 detection, HRP-luminol luminescence, single point; FAD-linked sulfhydryl oxidase ALR (Homo sapiens), P55789; purified ALR, DTT oxidation; inhibition, % (test concentration not listed); hit rate 3.8% among 290,000;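 active means mean and each replicate at 75% or more; inconclusive means only one of the two met; inactive means neither met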;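 further: stock transfer was 7.5 nL into about 7.5 µL; 0% = neutral wells and 100% = wells with inactivated enzyme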
Target sequence (P55789 whole entry, looked up): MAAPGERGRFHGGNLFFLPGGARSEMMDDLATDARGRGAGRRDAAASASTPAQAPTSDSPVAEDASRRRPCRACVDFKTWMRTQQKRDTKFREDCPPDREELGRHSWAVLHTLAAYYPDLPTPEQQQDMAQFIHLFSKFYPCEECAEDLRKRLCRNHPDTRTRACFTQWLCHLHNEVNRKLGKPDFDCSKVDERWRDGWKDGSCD
Ecoli rRNA inh = reduced GFP signal of wild-type E. coli, primary screen, bacterial rRNA inhibitor project, GFP/RFP fluorescence, OD600, single point; E. coli WT GFP vs humanized-ribosome RFP mutants, 24 h; active compounds read low; DMSO median 0, no signal -100; hit rate 1.6% among 350,000; AID 720706, 2013; GFP signal change (wild-type ribosome), % (concentration not given with the values);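 active means significant combined selectivity score with lowered wild-type GFP, culture density cut under 30%, mutant RFP and density less affected; inactive means any of these conditions unmet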; further: one replicate is shown; some compounds called inactive have numbers as strong as hits
Beta apoptosis = inhibitors of cytokine-induced beta cell apoptosis, primary screen, luminescence; protection from apoptosis, % (concentration not given with the values); INS-1E cytokine-induced death, ATP luminescence, 48 h; percent of positive-control rescue, neutral wells zero; AID 435005, 2010; hit rate 0.8% among 300,000;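 active means all replicates at 75% or more, or half of them and the mean; inconclusive means half reach 75% but not the mean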;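 further: 0% = cytokine-treated negative control wells and 100% = positive control rescue; higher means more ATP so stronger rescue from cytokine killing; wells of about 40 µL received 100 nL stock; the first replicate is given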
RanGTP-Impb inh = inhibitors of RanGTP-importin-beta interaction, primary screen, biochemical, FRET, CFP-Ran, YFP-importin-beta, homogeneous | Ran GTPase (GTP-bound) - importin-beta complex | cell-free CFP-Ran/YFP-importin-beta FRET ratio | inhibition, % (concentration not given with the values) | hit rate 1.1% among 300,000;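 active means most replicates above 15%; inconclusive means exactly half above 15%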;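 further: 0% = DMSO wells and 100% = Ran loaded with GDP instead of GTP; wells of about 40 µL received 100 nL stock; the first replicate is given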
Ecoli rRNA inh OD600 = also measured in Ecoli rRNA inh; calls as there; OD600 change, %; measured here: OD600 growth;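 optical density of the mix in the first replicate; 0 = DMSO median and -100 = no signal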
Ecoli rRNA inh RFP = further read-out of Ecoli rRNA inh, marked with its call; RFP signal change, %; measured here: RFP humanized mutant strains;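 first replicate; 0 = DMSO median and -100 = no signal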
Starred values were filed as active, the others as inactive; i = inactive; ? = inconclusive; · = not tested or not shown. These rows are one share of the data; the hit share may differ from the screen's.

Value order: FGF22 binding	T cruzi repl	AF4-AF9 inh	Calb FLC	ALR inh	Ecoli rRNA inh	Ecoli rRNA inh OD600	Ecoli rRNA inh RFP	Beta apoptosis	RanGTP-Impb inh
COc1cccc(NC(=O)CSc2nc3ccccc3c(=O)n2C)c1
→ i	-4	-3.9	11	-12	-15	-16	-2.8	4	-1.0
COc1ccc(NC(C)=O)cc1NC(C)C(=O)Nc1ccc(S(=O)(=O)N2CCCCC2)cc1 (stereo not given)
→ i	·	6.8	·	-8	1	-21	-1.5	-4	·
O=C(COC(=O)c1ccc2ccccc2n1)Nc1ncc(C(F)(F)F)cc1Cl
→ ·	-6	·	?	-5	·	·	·	-2	-0.4
CNc1nc(Oc2ccccc2C(=O)OC)nc(SC)n1
→ ·	-9	·	-12	1	·	·	·	-7	-2.4
O=C(Nc1ccccc1C(=O)NCCN1CCOCC1)c1ccc(Cl)cc1Cl
→ i	-4	-1.8	8	·	5	-1	-0.4	0	-2.7
COC(=O)CSc1nnc(-c2sc3ccccc3c2Cl)o1
→ ·	-11	·	-1	-1	·	·	·	-2	1.9
CC(C)c1ccc(/C=C2\SC(=O)N(CC(=O)NC3C=CS(=O)(=O)C3)C2=O)cc1 (stereo not given)
→ i	-22	-1.0	-18	-3	4	7	2.0	8	6.8
C=CCn1c(N)c(C(=O)NCc2cccnc2)sc1=S
→ ·	-4	·	15	98*	·	·	·	-3	-1.2
COc1ccc(CN(C(=O)/C=C/c2ccco2)C2CCS(=O)(=O)C2)cc1OC (stereo not given)
→ i	-17	-7.9	4	-11	8	13	2.2	-1	2.1
O=C(COC(=O)c1cccs1)Nc1cccc(S(=O)(=O)N2CCCCC2)c1
→ i	·	7.2	·	·	-10	2	-0.6	-2	·
Cc1cccc(C(=O)N2CCCC(N3CCN(c4ccc(F)cc4)CC3)C2)n1 (stereo not given)
→ i	6	-7.2	-5	99*	4	3	3.5	1	0.5
COCCCNC(=O)c1ccc(-n2nc(C(F)(F)F)cc2-c2cccs2)cc1
→ ·	0	·	14	-13	·	·	·	7	1.6
CCn1cc([N+](=O)[O-])c(C(=O)NCc2ccc3c(c2)OCO3)n1
→ i	-8	1.1	31	-1	-1	-1	-1.8	-4	-5.0
Cc1ccc(C(=O)COC(=O)CCS(=O)(=O)c2ccccc2)cc1[N+](=O)[O-]
→ i	·	0.3	·	-6	15	13	2.4	0	·
Cc1ccccc1C1C(C#N)=C(N)N(N(C)C)C2=C1C(=O)CC(C)(C)C2 (stereo not given)
→ i	6	-2.2	-1	69	20	16	0.6	1	-0.1

Entries above that bear a hit mark in ALR inh.
Molecule | AF4-AF9 inh | ALR inh | Ecoli rRNA inh | Ecoli rRNA inh OD600 | Ecoli rRNA inh RFP | RanGTP-Impb inh
C=CCn1c(N)c(C(=O)NCc2cccnc2)sc1=S | · | 98* | · | · | · | -1.2
Cc1cccc(C(=O)N2CCCC(N3CCN(c4ccc(F)cc4)CC3)C2)n1 (stereo not given) | -7.2 | 99* | 4 | 3 | 3.5 | 0.5

Other records
Value order: FGF22 binding	T cruzi repl	AF4-AF9 inh	Calb FLC	ALR inh	Ecoli rRNA inh	Ecoli rRNA inh OD600	Ecoli rRNA inh RFP	Beta apoptosis	RanGTP-Impb inh
COc1ccc(C(=O)NC(CC(C)C)C(=O)O)cc1OC (stereo not given)
→ ·	-22	·	6	-7	·	·	·	-3	4.2
COc1ccc(CNC(=O)N2CCN(c3ccc(F)cc3)CC2)cc1Cl
→ ·	-12	0.9	22	71	-14	-21	-2.6	-4	7.4
CCn1cc(S(=O)(=O)N2CCN(Cc3cccc(Cl)c3)CC2)cn1
→ i	5	-2.1	-10	-9	3	5	-1.0	·	0.5
CC(C)(C)c1cc(C(F)(F)F)c(C#N)c(=O)[nH]1
→ ·	-3	·	25	·	·	·	·	-1	-0.7
O=C(Nc1cc(S(=O)(=O)Nc2ccccc2F)ccc1Cl)c1ccc(F)cc1F
→ i	·	-0.4	·	-6	-1	10	11	0	·
COc1cc(CNCCN(C)C)ccc1OCc1c(F)cccc1Cl
→ i	50	9.0	-17	·	10	1	-3.7	6	-9.1
CC(=O)N1CCCc2ccc(NS(=O)(=O)c3ccc(C)c(C)c3)cc21
→ i	5	0.6	0	-12	-5	-14	4.1	28	-1.0
COc1ccc(C(=O)N/N=C(\C)CC(=O)Nc2ccc3ccccc3c2)c(OC)c1
→ i	4	-5.7	9	-6	2	8	0.8	-7	1.1
O=S(=O)(c1ccc(F)c(Cl)c1)N1CCN(C/C=C/c2ccccc2)CC1
→ i	·	7.6	·	8	-14	-31	-3.6	-6	·
COc1cc(C(=O)Nc2nccs2)cc(OC)c1OC
→ ·	-8	·	1	-9	·	·	·	0	-2.2
Cc1cnc2c(c1)C(=O)c1ccccc1-2
→ i	-8	-4.6	3	-12	22	16	5.8	-8	0.3
Cn1cc(S(=O)(=O)N2CCOCC2)cc1C(=O)NCc1ccccc1Cl
→ i	-4	2.5	-5	-15	7	-1	2.2	-4	-0.8
CCOP(=O)(OCC)C(C)(C)NC(=O)Nc1ccc(Cl)c(Cl)c1
→ i	0	1.5	-4	-6	2	8	-1.0	-1	5.6
Nn1cnnc1N/N=C/c1ccccc1C(F)(F)F
→ i	-2	-2.6	-12	3	7	12	-3.9	-8	1.9
Cc1ccccc1Cn1cc(/C=N/n2cnnc2)c2ccccc21
→ ·	20	·	3	0	·	·	·	-3	2.9

By substructure, those above with a cyano group
Value order: FGF22 binding	T cruzi repl	AF4-AF9 inh	Calb FLC	ALR inh	Ecoli rRNA inh	Ecoli rRNA inh OD600	Ecoli rRNA inh RFP	Beta apoptosis	RanGTP-Impb inh
Cc1ccccc1C1C(C#N)=C(N)N(N(C)C)C2=C1C(=O)CC(C)(C)C2 (stereo not given)
→ i	6	-2.2	-1	69	20	16	0.6	1	-0.1
CC(C)(C)c1cc(C(F)(F)F)c(C#N)c(=O)[nH]1
→ ·	-3	·	25	·	·	·	·	-1	-0.7

Following part.
Value order: FGF22 binding	T cruzi repl	AF4-AF9 inh	Calb FLC	ALR inh	Ecoli rRNA inh	Ecoli rRNA inh OD600	Ecoli rRNA inh RFP	Beta apoptosis	RanGTP-Impb inh
C=CCNC(=O)NC(=O)COC(=O)/C(C#N)=C/c1ccc(OC)cc1
→ i	-22	0.1	?	-6	12	8	0.7	-7	4.1
CC(C)C[C@H](NC(=O)c1nc[nH]c1C(=O)N1CCC(C)CC1)C(=O)OC(C)(C)C
→ i	-7	1.2	-2	-7	15	-1	17	-1	?
COc1ccc(N2CCN(S(=O)(=O)c3c(C(=O)N4CCOCC4)c(C)n(C)c3C)CC2)cc1
→ i	0	0.0	-10	43	12	-2	3.6	-2	0.2
CCOc1cc(-c2c(C#N)c(N)nc3c2CCCC3)ccc1O
→ ·	16	·	-8	-6	·	·	·	8	-1.5
CCOC(=O)c1sc(NCC2CCCO2)nc1C (stereo not given)
→ ·	-7	·	-8	-9	·	·	·	-8	5.5
O=C(O)c1cc2cc(Oc3ccccc3)ccc2[nH]1
→ i	-5	4.2	-1	4	-30	-29	-11	-9	-2.5
CCN(c1ccccc1)S(=O)(=O)c1ccc(OC)c(NC(=O)CN(C)C)c1
→ i	39	1.7	-7	-11	5	-1	-2.8	-3	2.1
CCc1c(C(=O)NC2CCCc3ccccc32)[nH]c(C)c1C(C)=O (stereo not given)
→ i	-4	0.2	7	0	-11	-43	12	1	1.0
Cc1c(CC(=O)NCCC(=O)O)c(=O)oc2cc3oc4c(c3cc12)CCCC4
→ i	-20	1.1	10	13	-3	-9	-3.9	7	3.4
Cc1ccc2nc(-c3ccccn3)c(NC3CCCC3)n2c1
→ i	68*	32*	-5	99*	-54	-82	-12	102*	?
COc1cccc(C(C)NC(=O)Nc2ccccc2Cl)c1 (stereo not given)
→ i	-13	-1.6	-27	-1	·	·	·	67	1.3
CC(=O)Cc1ccccc1OCC(=O)O
→ ·	-8	·	2	0	·	·	·	-2	4.4
CC(C)(C)C(=O)Nc1nnc(SCC(=O)NCc2ccco2)s1
→ i	-22	0.2	3	-4	-5	0	-1.0	-2	2.5
Cc1ccc(S(=O)(=O)/C(=C/Cl)NC(=O)c2ccccc2)cc1
→ ·	2	·	-2	·	·	·	·	-34	0.1
O=C(NCc1ccc2c(c1)OCO2)c1ccc2c(c1)N(Cc1c(F)cccc1Cl)C(=O)CS2
→ i	20	-2.3	-20	-6	-10	-17	-8.3	14	-2.6
CCOC(=O)c1c(S(=O)(=O)NCC(=O)Nc2cccc(C)n2)c(C)n(C)c1C
→ i	-5	-0.1	-4	-2	4	4	4.4	-8	?
COc1ccc(N2C(=O)CC(N3CCN(c4ccccc4F)CC3)C2=O)cc1 (stereo not given)
→ i	-16	1.1	10	-4	16	5	-0.4	1	0.9
CN(c1ccccc1)S(=O)(=O)c1cccc(C(=O)NCCCN2CCCC2=O)c1
→ i	-1	7.6	-10	1	9	4	3.1	-8	-3.9
O=C(CN1C(=O)NC(Cc2c[nH]c3ccccc23)C1=O)Nc1ccccc1Br (stereo not given)
→ i	·	-2.0	·	4	-6	8	-2.5	-6	·
COC(=O)C1=C(C)N(Cc2ccc(C)cc2)C(=O)C1
→ ·	-2	·	5	3	·	·	·	-9	-1.1
COc1ccc(/C=C2\CCCC3C2=NN(C(=O)COC(=O)CNC(=O)c2ccccc2)C3c2ccc(OC)cc2)cc1 (stereo not given)
→ ·	47	·	6	-4	·	·	·	-1	1.2
Cc1cc(OC(=O)c2cc([N+](=O)[O-])ccc2Cl)c([N+](=O)[O-])c(=O)[nH]1
→ i	5	47*	-8	-4	-17	-12	-5.1	-4	6.9

Source: PubChem (Broad Institute)
